WNV protease inh: WNV NS2B-NS3 proteinase inhibition; WNV NS2B-NS3 protease, fluorogenic substrate Ex360/Em465; hits give low values; z-score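 (tested at a level between 10 and 100 µM)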; hit rate 0.18% among 65,000;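 active = z-score at -3 or under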;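 note: score is relative to mean and spread of the compound wells of a plate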
Target sequence (P06935 1371-1501 limits assumed): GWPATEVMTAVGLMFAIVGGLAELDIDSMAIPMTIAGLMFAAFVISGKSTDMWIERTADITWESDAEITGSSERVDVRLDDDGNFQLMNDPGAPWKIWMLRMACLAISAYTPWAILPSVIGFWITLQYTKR
Target sequence (P06935 1502-1679 limits assumed): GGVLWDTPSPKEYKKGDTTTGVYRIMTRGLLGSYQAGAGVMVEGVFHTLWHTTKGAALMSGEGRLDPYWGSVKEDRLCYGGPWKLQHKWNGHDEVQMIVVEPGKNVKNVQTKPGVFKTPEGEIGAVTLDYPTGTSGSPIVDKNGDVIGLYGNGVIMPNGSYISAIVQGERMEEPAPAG
An asterisk follows results filed as active. A portion of the library (hit frequency here may not be typical).

O=C(CSc1nnc(CNC(=O)c2cccs2)o1)Nc1ccc2c(c1)OCO2
  WNV protease inh: 1.1
CCOc1ccc(-c2noc(CCC(=O)O)n2)cc1
  WNV protease inh: -0.76
Cc1ccc(OCCCC(=O)N2CCOCC2)c(C)c1
  WNV protease inh: -1.1
O=C(NCCCN1CCc2ccccc2C1)C1CCN(c2nnc(-n3cccc3)s2)CC1
  WNV protease inh: -0.86
Cc1nc2ccccc2n2c(O)c(CC(=O)O)cc12
  WNV protease inh: -0.26
CCOC(=O)CCCCC(=O)c1[nH]c(=O)[nH]c1Cn1ccnc1
  WNV protease inh: -2
O=C(CSCc1cnn(-c2ccccc2)c1-n1cccc1)NCc1cccs1
  WNV protease inh: -0.16
Cc1ncc2c(c1OC(=O)c1ccccc1)COC(C)(C)OC2
  WNV protease inh: 2
Cc1cccc(-n2ncc3c(N4CCC(C)CC4)ncnc32)c1
  WNV protease inh: 0.64
CN1CCN(Cc2nc3c(c(=O)n(C)c(=O)n3C)n2Cc2ccccc2Cl)CC1
  WNV protease inh: -0.44
CC(C)(C)OC(=O)NCCC(=O)Oc1ccc2ccc(=O)oc2c1
  WNV protease inh: 2.6
COc1ccc(CNC(=O)c2cccc(N3CCCC3=O)c2)cc1
  WNV protease inh: 0.58
Clc1ccc(-n2ncc3c(N4CCCCCC4)ncnc32)cc1
  WNV protease inh: 0.14
Cc1cccc(NC(=O)c2cnc3sccn3c2=O)n1
  WNV protease inh: -0.72
O=C(CN1CCN(Cc2ccccc2)C1=O)NCc1ccc(Cl)cc1
  WNV protease inh: -1.2
Nc1cc(-c2ccc(Br)cc2)[nH]n1
  WNV protease inh: -0.99
O=C(c1cc(-c2ccncc2)nc2ccc(Cl)cc12)N1CCN(C(=O)C2CCCO2)CC1 (stereo unspecified)
  WNV protease inh: 0.15
O=C(NC1CCSC1=O)c1ccc(Cl)cc1 (stereo unspecified)
  WNV protease inh: 0.02
Cn1cnnc1SCc1ccccc1Br
  WNV protease inh: -0.81
Cc1ccc(CN2CCN(CC(=O)N3CCC(C(N)=O)CC3)C2=O)cc1
  WNV protease inh: 0.7
COCc1cc(=O)n2c(-c3ccc(C)cc3)n[nH]c2n1
  WNV protease inh: -0.26
CC1=CCC(C(=O)O)C(C(=O)O)C1 (stereo unspecified)
  WNV protease inh: -0.79
Cc1ccc(NC(=O)COc2ccc(/C(N)=N/O)cc2)cc1C
  WNV protease inh: 1.4
CCN(CCCNC(=O)CN1C(=O)COc2ccccc21)c1cccc(C)c1
  WNV protease inh: 0.72
Cc1nnc(SCCN2CCOCC2)n1C
  WNV protease inh: -1.1

As a working copy, 4 of the compounds above:
CC1=CCC(C(=O)O)C(C(=O)O)C1 (stereo unspecified)
  WNV protease inh: -0.79
Cc1ccc(NC(=O)COc2ccc(/C(N)=N/O)cc2)cc1C
  WNV protease inh: 1.4
CCN(CCCNC(=O)CN1C(=O)COc2ccccc21)c1cccc(C)c1
  WNV protease inh: 0.72
Cc1nnc(SCCN2CCOCC2)n1C
  WNV protease inh: -1.1

Of the compounds above, 2 have a thiophene ring, fused or not.
O=C(CSc1nnc(CNC(=O)c2cccs2)o1)Nc1ccc2c(c1)OCO2
  WNV protease inh: 1.1
O=C(CSCc1cnn(-c2ccccc2)c1-n1cccc1)NCc1cccs1
  WNV protease inh: -0.16

(cont.)
N#CC1=C(N)NC(SCC(=O)Nc2ccccc2)=C(C#N)C12CCCC2
  WNV protease inh: -0.79
CCC(C)C(NS(=O)(=O)c1ccc(C)cc1)C(=O)NCCN1CCOCC1 (stereo unspecified)
  WNV protease inh: -1.9
CCC(C)N1CC23C=CC(O2)C(C(=O)OC)C3C1=O (stereo unspecified)
  WNV protease inh: -0.32
COC(=O)c1c(NC(=O)CCN2CCOCC2)sc2c1CCCC2
  WNV protease inh: 0.26
OC(COc1cccc(OCC(O)CN2CCCC2)c1)CN1CCCC1 (stereo unspecified)
  WNV protease inh: -0.86
c1ccc(-c2ncnc3nc4n(c23)CCC4)cc1
  WNV protease inh: -1.7
C=CCn1c(SCC(=O)NC2CCCCC2)nnc1-c1ccc(OC)cc1
  WNV protease inh: 1.6
O=C1CCc2cc(S(=O)(=O)NC(Cc3ccccc3)C(=O)NC3CCCC3)ccc2N1 (stereo unspecified)
  WNV protease inh: 0.25
Clc1ccc(-c2nn3c(Cn4cnc5ccccc54)nnc3s2)c(Cl)c1
  WNV protease inh: 1.1
COc1cccc(-c2cc(C(=O)NCCc3ccccc3)no2)c1
  WNV protease inh: -0.99
Cn1cnnc1SCC(=O)Nc1ccc2nc(SCc3ccccc3)sc2c1
  WNV protease inh: -0.63
COC(=O)C1=C(NC(=O)c2cccc(OC)c2)CCS1
  WNV protease inh: -0.25
O=C(CCCCn1c(=O)c2ccccc2n(CC(=O)NC2CCCC2)c1=O)NC1CCCC1
  WNV protease inh: -0.85
C/C(=C\c1ccco1)C1C(C#N)=C(N)Oc2n[nH]c(-c3ccccc3)c21 (stereo unspecified)
  WNV protease inh: -0.48
Cc1nc2ccc(S(=O)(=O)NC(C(=O)NCc3cccs3)C(C)C)cc2s1 (stereo unspecified)
  WNV protease inh: 0.29
COC(=O)c1[nH]c2c(c1C)C(=O)CC(c1ccccc1)C2 (stereo unspecified)
  WNV protease inh: 0.71
Cc1noc(C)c1S(=O)(=O)N1CCC(C(=O)N2CCN(c3ccc(F)cc3)CC2)CC1
  WNV protease inh: 0.35
Clc1ccc2oc(-c3ccccc3)nc2c1
  WNV protease inh: -0.24
CCOc1ccc(C(=O)N2CCc3cc(OC)c(OC)cc3C2)cc1OCC
  WNV protease inh: 0.75
COc1ccccc1-n1cnc2cc(C(=O)NCC3CCCO3)ccc21 (stereo unspecified)
  WNV protease inh: -0.76
COc1ccc(NC(=O)Cc2ccc(Cl)cc2)cc1NC(=O)c1ccco1
  WNV protease inh: -0.76
COc1ccccc1-n1c(CNC(=O)COc2ccccc2)n[nH]c1=S
  WNV protease inh: -0.48
CCOC(=O)C1=C(c2ccccc2)Nc2ncnn2C1c1cccc(OC)c1OC (stereo unspecified)
  WNV protease inh: -0.69
O=C(NCCN1CCOCC1)c1c(F)c(F)c(F)c(F)c1F
  WNV protease inh: -0.45
O=C(c1ccc(Br)o1)N1CCN(c2ccc3nnc(-c4ccccc4)n3n2)CC1
  WNV protease inh: 0.56

Cc1onc(-c2ccccc2)c1C(=O)Nc1sc2c(c1C#N)CCC(C)C2 (stereo unspecified)
  WNV protease inh: -1.1
Cc1ccccc1-n1c(Cn2c(=O)sc3ccccc32)nnc1SCC(=O)N1CCCC1
  WNV protease inh: 0.16
COc1cc(S(=O)(=O)NCc2ccccc2)ccc1F
  WNV protease inh: -1.7
c1cncc(-c2csc(NCc3ccco3)n2)c1
  WNV protease inh: 0.51
COc1ccc(C)cc1NC(=O)C1CC(=O)OC12CCCCC2 (stereo unspecified)
  WNV protease inh: 1.4
COc1cccc(C(=O)OCn2nnc3ccccc3c2=O)c1OC
  WNV protease inh: 1.2
CC1(C)CC(=O)C2=C(C1)N(Cc1ccco1)C(=O)NC2(C(F)(F)F)C(F)(F)F
  WNV protease inh: 0.25
O=C(NCC(c1cccnc1)N1CCN(c2ccc(F)cc2)CC1)c1ccc2c(c1)OCO2 (stereo unspecified)
  WNV protease inh: 0.37
Cc1sc(NC(=O)c2ccco2)c(C(c2cccnc2)N2CCN(c3ccc(F)cc3)CC2)c1C (stereo unspecified)
  WNV protease inh: -0.74
Cc1n[nH]c(C)c1N1C(=O)c2cccc3c(N4CCCCCC4)ccc(c23)C1=O
  WNV protease inh: -1.8
CCCc1cc(=O)n2[nH]c(NCc3c(F)cccc3Cl)nc2n1
  WNV protease inh: -0.44
COC(=O)C1=C(C(C)=O)C(c2ccc(C(=O)OC)cc2)n2nnnc2N1 (stereo unspecified)
  WNV protease inh: -0.1
CCN(c1ccc2c(c1)OCO2)S(=O)(=O)c1cc(Br)cc2c1N(C(=O)C1CC1)CC2
  WNV protease inh: -0.06
Cc1ccc(NC(=O)CC2Nc3ccccc3NC2=O)cc1Cl (stereo unspecified)
  WNV protease inh: -0.41
O=C(NCc1ccccc1)NC(=O)c1ccncc1
  WNV protease inh: -1.4
COc1ccc(-n2c(Cc3cccn3C)nnc2SCC(=O)NCC2CCCO2)cc1 (stereo unspecified)
  WNV protease inh: 0.62
O=c1c2ccccc2nnn1CSc1nnc(-c2cccs2)n1Cc1ccccc1
  WNV protease inh: -0.29
Cn1c(C(=O)NCCCN2CCN(c3ccc(F)cc3)CC2)cc2c(=O)n(C)c3ccccc3c21
  WNV protease inh: 0.42
Cc1ccc(C)c(C(=O)COC(=O)c2ccc(Br)o2)c1
  WNV protease inh: 2.1
CCOc1ccc(C=NC23CN4CN(CN(C4)C2)C3)cc1
  WNV protease inh: 0.86
CCOc1cccc(NC(=O)C2CC(=O)N(C)C(=Nc3cccc(F)c3)S2)c1 (stereo unspecified)
  WNV protease inh: 1.2
O=C(O)c1cc2n(n1)C(C(F)(F)F)CC(c1ccco1)N2 (stereo unspecified)
  WNV protease inh: 0.47
COc1ccc(C)cc1S(=O)(=O)Nc1cccc(Cl)c1
  WNV protease inh: 1.1
O=C(NCc1ccccn1)NC12CC3CC(CC(C3)C1)C2
  WNV protease inh: 2.1
Cc1sc2c(c1C)c(=O)n(-c1ccccc1)c1nncn21
  WNV protease inh: -1.6

Cc1cc(=O)[nH]c(SCc2cccc(Br)c2)n1
  WNV protease inh: -0.25
O=C1N(CC(=O)N2CCc3ccccc32)CCN1Cc1ccccc1Cl
  WNV protease inh: 0.32
COC(=O)C1CCN(C(=O)c2sc3nc(-c4ccccc4)cn3c2C)CC1
  WNV protease inh: 0.17
Cc1nc2ccccc2c2nc3ccccc3n12
  WNV protease inh: 3.1
Cc1ccc(N2C(=O)c3ccccc3C2O)nc1 (stereo unspecified)
  WNV protease inh: -0.44
O=C(CCc1ccccc1)Nc1cc(Cl)ccc1O
  WNV protease inh: -1.6
c1ccc(Sc2nc(N3CCCCC3)nc(N3CCCCC3)n2)nc1
  WNV protease inh: -0.6
NC(=O)CSc1cn(CCNC(=O)c2cccs2)c2ccccc12
  WNV protease inh: -0.11
CCCCC(=O)Nc1ccc2c(c1)C(=O)NC2=O
  WNV protease inh: 1.1
Nc1nc2n(n1)C(c1cccc(Cl)c1)CC(c1ccc(F)cc1)N2 (stereo unspecified)
  WNV protease inh: -1.2
CCC(=O)c1cc2c(cc1NC(=O)c1ccc(C)cc1)OCCO2
  WNV protease inh: 1.1
Cc1noc(NS(=O)(=O)c2ccc(NC(=O)CCC3CCCC3)cc2)c1C
  WNV protease inh: -0.35
O=C(NCCc1cn2ccccc2n1)c1ccc(Br)o1
  WNV protease inh: -0.67
CCN(CC)CCOC(=O)C1(c2ccc(OC)c(OC)c2)CCCC1
  WNV protease inh: 1
O=C(CNC(=O)c1cccs1)NCCN1CCN(c2ccccc2F)CC1
  WNV protease inh: 0.14
Clc1ccc(CSc2ncccn2)cc1
  WNV protease inh: -0.69
O=C(NCc1ccncc1)c1cccc(F)c1
  WNV protease inh: -1.1
CC(C)(C)OC(=O)N1CC=C2C(C#N)=C(N)C(C#N)(C#N)[C@H](c3cccnc3)[C@H]2C1
  WNV protease inh: -0.26
COc1cccc(NC(=O)CCN2CCN(c3ccccc3F)CC2)c1
  WNV protease inh: -0.41
Cn1ccnc1-c1nc2ccccc2[nH]c1=O
  WNV protease inh: -1
O=C(NCCC1=CCCCC1)C1CCN(S(=O)(=O)c2cccc3nonc23)CC1
  WNV protease inh: 0.25
CC1=C(C(=O)OCc2ccc3c(c2)OCO3)C(c2ccc(F)cc2)NC(=O)N1 (stereo unspecified)
  WNV protease inh: -0.73
CC(=O)c1cccc(NC(=O)Nc2ccc(C(=O)N3CCOCC3)cc2)c1
  WNV protease inh: -0.92
N#Cc1c(-c2ccco2)c2c([nH]c1=S)CCCC2
  WNV protease inh: -0.56
CC1CC(C)CN(C(=O)C2CCCN(S(=O)(=O)c3cccc4nonc34)C2)C1 (stereo unspecified)
  WNV protease inh: 0.14

A few values from the entries so far.
Reading for `Cc1noc(NS(=O)(=O)c2ccc(NC(=O)CCC3CCCC3)cc2)c1C` in WNV protease inh: -0.35
Reading for `CCCCC(=O)Nc1ccc2c(c1)C(=O)NC2=O` in WNV protease inh: 1.1
Reading for `COc1cccc(NC(=O)CCN2CCN(c3ccccc3F)CC2)c1` in WNV protease inh: -0.41
Reading for `O=C(NCCc1cn2ccccc2n1)c1ccc(Br)o1` in WNV protease inh: -0.67
Reading for `Cc1cc(=O)[nH]c(SCc2cccc(Br)c2)n1` in WNV protease inh: -0.25
Reading for `Nc1nc2n(n1)C(c1cccc(Cl)c1)CC(c1ccc(F)cc1)N2` (stereo unspecified) in WNV protease inh: -1.2
Reading for `CC1CC(C)CN(C(=O)C2CCCN(S(=O)(=O)c3cccc4nonc34)C2)C1` (stereo unspecified) in WNV protease inh: 0.14

The list continues:
Cc1cc(C)c(C#N)c(SCC(=O)Nc2ccc(S(=O)(=O)Nc3onc(C)c3C)cc2)n1
  WNV protease inh: 0.09
COc1ccccc1N(CC(=O)N1CCCCCC1)S(C)(=O)=O
  WNV protease inh: 1.8
CCOC(=O)c1cnn(CCOC(=O)C2CC2)c1NC(=O)C1CC1
  WNV protease inh: 0.12
CCOC(=O)Cn1c(=O)oc2cc(S(=O)(=O)Nc3cc(Cl)ccc3OC)ccc21
  WNV protease inh: 1.6
Cc1cccc(NC(=O)c2sc(NC(=O)c3ccco3)c(C#N)c2C)c1C
  WNV protease inh: -0.01
CCCOc1ccccc1C(=O)N(Cc1cccs1)C1CCS(=O)(=O)C1 (stereo unspecified)
  WNV protease inh: -0.27
CC(C)CCNC(=O)NC(=O)CSc1nnc(-c2ccccc2Br)o1
  WNV protease inh: -0.41
CC(C)(C)OC(=O)N1CCC(C(=O)O)CC1
  WNV protease inh: 1.3
Cn1nnnc1-c1cc(Br)ccc1NC(=O)c1ccccc1
  WNV protease inh: 0.22

Entries from the list above that contain a tert-butyl group (three):
CC(C)(C)OC(=O)NCCC(=O)Oc1ccc2ccc(=O)oc2c1
  WNV protease inh: 2.6
CC(C)(C)OC(=O)N1CC=C2C(C#N)=C(N)C(C#N)(C#N)[C@H](c3cccnc3)[C@H]2C1
  WNV protease inh: -0.26
CC(C)(C)OC(=O)N1CCC(C(=O)O)CC1
  WNV protease inh: 1.3
